Compound activity as filed in PubChem BioAssay.
HCMV UL50-53 inh = inhibitors of HCMV UL50-UL53 interaction, biochemical, HTRF. HCMV UL50-UL53 nuclear egress complex (human cytomegalovirus). normalized percent inhibition. inhibition, % (concentration not given with the values). 190,000 compounds, 0.15% hits;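 active = both replicates at 50% or more, plus weaker picks with an unusually low signal ratio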;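 note: stock transfer was 100 nL into about 20 µL; 0% = negative control wells and 100% = wells with untagged competitor protein; inactives centre near -12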
GIV-Gai inh = inhibitors of GIV peptide binding to Galpha-i3, primary screen, biochemical, fluorescence polarization, FITC-GIV GBA peptide, rat Galphai3; Guanine nucleotide-binding protein G(i) subunit alpha-3 (Rattus norvegicus), P08753; 90 min; hits give low values; scaled: aluminum fluoride 0%, vehicle 100%; percent of control (FP), % (test concentration not listed); 210,000 compounds, 0.42% hits; AID 1224905, 2016;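 active = replicate mean at 85% of control or lower, very high polarization wells dropped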;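 note: wells of about 15 µL received 100 nL stock; the first replicate is given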
Target sequence (P08753 whole entry, looked up): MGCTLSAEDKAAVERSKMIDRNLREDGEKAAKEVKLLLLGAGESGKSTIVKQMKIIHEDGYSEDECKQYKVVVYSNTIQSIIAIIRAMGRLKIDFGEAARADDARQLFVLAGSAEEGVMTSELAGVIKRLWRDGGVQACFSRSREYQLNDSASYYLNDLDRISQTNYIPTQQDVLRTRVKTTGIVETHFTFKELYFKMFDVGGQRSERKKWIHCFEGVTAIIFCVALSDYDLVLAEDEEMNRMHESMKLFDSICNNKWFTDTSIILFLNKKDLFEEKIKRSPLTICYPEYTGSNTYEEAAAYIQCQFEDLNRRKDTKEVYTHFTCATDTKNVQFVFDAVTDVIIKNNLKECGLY
Sa growth inh = S. aureus growth inhibition at 42 and 30 °C, primary screen, LtaS inhibitor project, RN4220, two temperatures; 170,000 compounds, 0.53% hits; relative growth, % (test concentration not listed); OD600, 20 h, 42 °C; hits give low values; AID 720641, 2013;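 active = growth at 42 °C up to 50% and 20 or more points under that at 30 °C, or under 10% at both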;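 note: 300 nL library stock went into each well; scaled to the means of positive and negative controls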
Sa growth inh second temp = recorded beside Sa growth inh, whose call it bears; relative growth, %; measured here: growth at 30 °C;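 optical density after 20 h as mean of two plates; 100% = untreated growth and lower means inhibition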
* hit, by the source's call; . = not tested or not shown; & = joins results of further samples. Hits appear at their usual frequency; any-hit rate near 0.82%.

The line under a structure holds: Sa growth inh second temp | HCMV UL50-53 inh | Sa growth inh | GIV-Gai inh
COc1cc(COc2ccc3c(C)c(CC(=O)O)c(=O)oc3c2C)cc(OC)c1OC
    80.4 | -32.4 | 86.5 | 104.2
CCCn1ccc2c(OCC(=O)Nc3ccc(OC)c(OC)c3)cccc2c1=O
    88.5 | . | 100.3 | 95.5
S=c1[nH]nc2ccccn12
    92.9&87.4 | -29.5&-23.8 | 89.3&60.6 | 108.1
COc1cc(C)nc(N(C)S(=O)(=O)c2ccccc2Cl)n1
    89.8 | -4.4 | 91.4 | 107.8
Cc1ccc2nc(CSc3nnc(-c4cccs4)n3CC3CCCO3)cc(=O)n2c1 (configuration not stated)
    99.5 | -34.5 | 98.8 | .
Fc1ccc(F)c(CN2CCCC2c2ccc(Cl)cc2)c1 (configuration not stated)
    . | -13.9 | . | 101.3
CC(=O)c1cc(-c2ccc(F)cc2)n(CC(=O)NC2CCC(C)CC2)c1C (configuration not stated)
    88.5 | . | 86.1 | 101.8
Cc1ccc(NC(=O)CSc2nnc3ccc4ccccc4n23)cc1
    106.0 | . | 133.7 | 109.8
Cc1cc(C)c2c(=O)cc(C(F)(F)C(F)F)oc2n1
    91.3 | -4.5 | 104.8 | 112.6
Cc1ccccc1CNC(=O)c1ccc2c(c1)c(C)c(C)n2C
    89.8 | . | 97.0 | 114.2
Cc1nc(Nc2ccc3c(c2)OCCO3)cc(-c2ccccc2)n1
    . | -18.8 | . | 102.7
CCOC(=O)c1c[nH]c2cc(OC)c(OC)cc2c1=O
    . | -8.5 | . | 96.3
CCOC(=O)c1cc(C(=O)c2ccc(Cl)cc2)n2c1ccc1ccccc12
    98.4 | -1.1 | 94.2 | .
CCOC(=O)Nc1sc(NS(=O)(=O)c2ccc(C)cc2)nc1C
    87.7 | 2.3 | 100.8 | 100.2
CCn1nnc(N(C(=O)c2cccs2)C(=O)c2cccs2)n1
    87.7 | 8.1 | 92.9 | 104.4

Laid out differently: entries from further up.
SMILES,Sa growth inh second temp,HCMV UL50-53 inh,Sa growth inh,GIV-Gai inh
CCOC(=O)c1cc(C(=O)c2ccc(Cl)cc2)n2c1ccc1ccccc12,98.4,-1.1,94.2,.
CCOC(=O)Nc1sc(NS(=O)(=O)c2ccc(C)cc2)nc1C,87.7,2.3,100.8,100.2

The list continues:
The line under a structure holds: Sa growth inh second temp | HCMV UL50-53 inh | Sa growth inh | GIV-Gai inh
O=C(NC1CCCCC1)c1ccc(Cn2c(SCc3ccccc3)nc3cccnc32)cc1
    90.3 | . | 118.6 | 98.9
C[N+]1(CCOC(=O)Nc2ccccc2)CCCCC1
    96.5 | . | 92.6 | 100.8
COc1ccc(OC)c(/C=N\NC(=O)C2C(=O)NCC2c2ccccc2)c1 (configuration not stated)
    95.6 | -44.6 | 77.1 | 99.3
CCSc1ncc(Cl)c(C(=O)N(Cc2ccc(CC)cc2)C2CCS(=O)(=O)C2)n1 (configuration not stated)
    . | -0.3 | . | 106.9
C=CCn1c(N)c(C(N)=O)sc1=S
    84.6 | -154.7 | 99.1 | 98.6
COc1ccc(NC(=O)CSC2=Nc3ccccc3C3=NC(CCC(=O)NCCc4ccccc4)C(=O)N23)c(OC)c1 (configuration not stated)
    84.2 | . | 88.3 | 107.8
CCOC(=O)c1c(CC(C)C)csc1NC(=O)Cc1ccccc1
    106.5 | -6.3 | 77.6 | .
NC(=O)c1oc2ccccc2c1NC(=O)Cc1ccc(Cl)cc1
    77.5 | -30.0 | 89.8 | 96.5
O=C(CCCCCN1CCN(c2ccccc2-c2ccccc2)CC1)NC1CCCc2ccccc21 (configuration not stated)
    . | -13.5 | . | 102.9
Cc1cc(C(=O)COC(=O)CCc2nc3ccccc3s2)c(C)n1CC1CCCO1 (configuration not stated)
    91.0 | -8.1 | 112.9 | .
CCCC(=O)N1CC2(C)CN(C(=O)CCC)CC(c3ccccc3)(C1)C2=O
    91.6 | . | 115.7 | 104.1
O=C(Cn1c(=O)n(-c2ccccc2)c(=O)c2sccc21)NC1CCCC1
    89.2 | 3.2 | 95.2 | 110.3
CCOC(=O)C1CCCN(c2cc(Nc3ccc4c(c3)OCO4)c3c4c(onc24)-c2ccccc2C3=O)C1 (configuration not stated)
    86.9 | -29.2 | 86.4 | 108.3
CCc1cccc(N(C)C(N)=Nc2cccc3ccccc23)c1
    . | -25.3 | . | 107.2
CCOc1cc(C#N)cc(Cl)c1O
    82.0 | -10.7 | 96.1 | .
CCC(Sc1nc2ccccc2c(=O)n1C1CCCC1)C(=O)NCc1cccnc1 (configuration not stated)
    83.7 | -0.1 | 115.6 | 100.1
CCc1nnc(SCC(=O)N(C)c2ccccc2)c2cc3sccc3n12
    67.9 | . | 100.7 | 106.6
CCC(Sc1nc(C)cc(C)n1)C(=O)NC(C)c1ccccc1 (configuration not stated)
    80.8 | -1.7 | 83.9 | 99.3
COc1ccc(NC(=O)C(CC(C)C)NS(=O)(=O)c2ccc3[nH]c(=O)oc3c2)cc1 (configuration not stated)
    103.3 | -5.0 | 93.5 | 108.6
CCOC(=O)C(C)Oc1cc2oc(=O)c3c(c2cc1Cl)CCCC3 (configuration not stated)
    85.3 | . | 93.3 | 99.1
COc1ccc(NC(=O)CN2CCCC2)cc1
    98.2 | 0.8 | 100.1 | 110.0
Cc1nn(-c2ccccc2)c2sc(-c3noc(COc4ccccc4)n3)cc12
    . | -17.1 | . | 106.9
CCCCNc1c(C(=O)OCC)c(C)nc2c1cnn2CC
    . | 4.4&-10.1&-19.1 | . | 107.5
O=c1[nH]c2ccc(S(=O)(=O)Nc3ccc(Br)cc3)cc2s1
    . | -2.8 | . | 97.6
O=c1[nH]c(C(F)(F)F)nc2c1cnn2-c1ccccc1
    83.8 | -18.4 | 103.5 | .
COc1ccccc1NS(=O)(=O)c1ccc(NC(=O)CCN2C(=O)C3CC=CCC3C2=O)cc1 (configuration not stated)
    90.5 | -9.0 | 85.5 | .
CC(C)=CCCC1=CCC2C(=O)NNC(=O)C2C1 (configuration not stated)
    98.3 | -21.7 | 121.3 | 101.1
CCC1CCCCN1CCCNC(=O)c1cc2c(=O)[nH]c3ccccc3c2n1C (configuration not stated)
    79.2 | 0.9 | 103.7 | 109.3
CC(C)N(Cc1ccccc1)C(=O)CSc1nc(C(C)(C)C)nc2c1c(=O)n(C)c(=O)n2C
    94.8 | -27.9 | 77.6 | .
CC1CCCC(C(=O)O)N1C(=O)CCS (configuration not stated)
    85.8 | . | 75.6 | 101.5
CC(C)c1ccc(NC(=O)CSc2ccc(NCc3ccc(Cl)cc3)nn2)cc1
    . | -26.6 | . | 99.4
CC(C)NCC1CCCO1 (configuration not stated)
    99.1 | 0.8 | 82.4 | 104.9
CCC(C(=O)Nc1cccc(C)c1)n1nc(-c2ccccc2)c2c(c1=O)CCCC2 (configuration not stated)
    . | -3.4 | . | 99.9
COc1ccc(-c2nc(C)c(CCNC(=O)C(=O)Nc3ccccc3OC)s2)cc1
    89.9 | . | 95.2 | 98.5
CC1=[N+]([O-])C(C)(C)C(c2cccs2)=[N+]1[O-]
    95.7 | -3.4 | 89.8 | 100.7
COc1cccc2cc(C(=O)Nc3ccccc3)c(=Nc3ccc(C#N)cc3)oc12
    . | -15.0 | . | 98.3
N#CC1(c2ccccc2)N=C2C=CC=CN2N=C1c1ccccc1 (configuration not stated)
    29.6 | -102.6 | 73.9 | 106.2
CC(C)(C)SCCNc1nc(Sc2ccc(Cl)cc2)nc(N2CCSCC2)n1
    93.6 | -11.4 | 85.5 | 99.7
COc1ccc(C2=NN3C(C2)c2ccccc2OC32C(=O)Nc3ccccc32)cc1 (configuration not stated)
    82.9 | -28.4 | 88.8 | 110.3
COc1ccc(CN(CCN(C)C)Cc2ccccc2)c(OC)c1
    81.4 | 4.1 | 106.9 | 102.6
CCCn1cc(S(=O)(=O)c2ccccc2)c(=O)c2cc(F)c(N3CCCC(C)C3)cc21 (configuration not stated)
    82.5 | . | 95.8 | 104.0
N#Cc1c(N)n(C2CCCC2)c2nc3ccccc3nc12
    78.0 | -17.5 | 91.3 | 104.1
CC(=O)N(Cc1cc2ccc(C)cc2[nH]c1=O)CC1CCCO1 (configuration not stated)
    99.7 | -12.9 | 85.5 | 107.8
COc1cc(-c2cc(OC)c3c(C)oc(C)c3c(=O)c2)ccc1OC(=O)c1ccc(C)cc1
    86.3 | -30.5&-18.1 | 98.2 | 102.0&102.8
CCc1ccc(NC(=O)c2nn(-c3ccc(OC)cc3)c(=O)c3c2c2ccccc2n3C)cc1
    86.9 | -22.7 | 103.9 | 102.0
COc1ccc(C(=O)c2cn(CC(=O)Nc3ccc4c(c3)OCO4)c3ccc(OC)cc3c2=O)cc1
    89.1 | -39.1 | 106.5 | 99.6
Cc1cc(C)n2nc(SCC(=O)N(c3ccccc3)c3ccccc3)nc2n1
    90.6 | -0.2 | 105.8 | 106.5
COc1ccc(C(=O)OCN2C(=O)c3ccccc3C2=O)cc1
    84.3 | -9.1 | 109.6 | 106.4
Cc1ccc2c(c1)N(CC(=O)NCc1ccccc1Br)C(=O)c1cccnc1O2
    89.4 | . | 161.9 | 103.5
Cc1oc(-c2ccccc2)nc1CSc1nc2ncccc2o1
    74.6 | -27.3 | 98.3 | 104.4
O=C(O)CSCC(=O)Nc1nc(-c2ccc(F)c(F)c2)cs1
    90.1 | -17.2 | 108.6 | 98.4
O=S(=O)(Nc1nc2ccccc2nc1Sc1nc2ccccc2o1)c1ccccc1
    92.6 | 0.5 | 97.4 | .
COc1ccccc1N(Cc1ccccc1O)C(=O)COc1ccccc1C
    72.4 | 11.0 | 108.9 | .
O=C(NN=C1CCCC1)c1ccc2c(c1)OCO2
    97.7 | 1.7 | 97.7 | .
CN(C)S(=O)(=O)c1cccc(-c2cn3cc(Cl)ccc3n2)c1
    89.7 | -22.3 | 102.3 | 106.5
O=C1CCN(C(=S)NCc2ccccc2)CC1
    93.7 | -5.6 | 87.0 | .
Cc1ccc(OCc2nc(-c3ccc(C(=O)NCc4ccc(OC(C)C)cc4)cc3)oc2C)cc1
    85.9 | . | 84.3 | 106.6
COc1ccc2c(c1)cc1c(=O)n(CC(=O)NCc3ccco3)nc(C)n12
    96.3 | -24.2 | 115.1 | 95.5
Cc1cc(C(=O)CSc2nc3ccccc3o2)c(C)n1CC1CCCO1 (configuration not stated)
    85.6 | -13.8 | 88.0 | .
O=C(Nc1ccc(C(=O)N2CCCCC2)cc1)C1=CSCCO1
    88.4 | -42.9 | 92.8 | 104.9

Continued:
The line under a structure holds: Sa growth inh second temp | HCMV UL50-53 inh | Sa growth inh | GIV-Gai inh
CCC(=O)N1CCc2cc(S(=O)(=O)CCC(=O)N3CCN(c4ccc(Cl)cc4)CC3)ccc21
    86.3 | -9.5 | 115.9 | 109.7
Cc1ccc2nc(-c3ccc(Cl)c(NC(=O)COc4ccc([N+](=O)[O-])cc4)c3)oc2c1
    89.0 | -25.3 | 106.5 | 111.8
O=C(CSCc1nnc(-c2ccc(F)cc2)o1)Nc1ccccc1F
    100.4 | 10.2 | 106.5 | .
Cc1ccc(CNC(=O)CCCn2c(=O)c3ccccc3n(CC(=O)Nc3ccc(C)c(C)c3)c2=O)cc1
    94.8 | -14.5 | 112.0 | 106.1
CCOC(=O)c1cccc(NC(=O)NCc2c(C)nn(C)c2C)c1
    . | -24.2 | . | 104.3
COCCn1c(CN2CCN(S(=O)(=O)c3ccc(OC)cc3)CC2)nc2ccccc2c1=O
    . | -28.4 | . | 108.7
O=C(COC(=O)C1CCCO1)Nc1cc(Cl)cc(Cl)c1 (configuration not stated)
    90.8 | -8.4 | 101.4 | .
S=C(NCC1CCCO1)N1CCn2c(nc3ccccc32)C1 (configuration not stated)
    95.1 | 6.3 | 91.8 | 104.9
CCOC(=O)c1cc(-c2ccnn2S(=O)(=O)c2cccc(C(F)(F)F)c2)on1
    90.1 | -14.2 | 93.2 | 97.1
COc1ccc(CC(C)CC(=O)Nc2ccc(I)cc2)cc1 (configuration not stated)
    84.6 | . | 94.4 | 108.9
c1ccc(Cn2c(NCc3ccncc3)nc3ccccc32)cc1
    78.3 | . | 98.0 | 103.6
Cc1ccc(F)cc1NC(=O)c1c(O)c2ccccc2[nH]c1=O
    . | -0.9 | . | 111.9
Cc1ccc(S(=O)(=O)N2Cc3ccccc3CC2C(=O)NC2CCCCC2)cc1 (configuration not stated)
    98.4 | 21.1 | 79.3 | .
O=C(Nc1ccc(OCC(F)(F)C(F)F)c(C(F)(F)F)c1)c1ccccc1O
    16.1 | -0.4 | 73.3 | 103.3
COc1cc(C(=O)N=c2c(C#N)cc3c(=O)n4cccc(C)c4nc3n2C(C)C)cc(OC)c1OC
    94.4 | -27.8 | 80.6 | .
Cc1ccc(S(=O)(=O)N2CCOCC2)cc1C(=O)Nc1ccccc1C(=O)O
    91.5 | -7.6 | 128.6 | 102.5
